STAT1_inh: inhibitors of IFN-gamma induced STAT1 signaling; NIH 3T3 STAT1-luciferase reporter, luminescence; inhibition, % at 5.5 µM; 0.35% of 200,000 active;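 active means inhibition above a set limit, the mean inhibition across all tested compounds plus 3 SD, cut at about 34% in these data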;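 further: 0% = IFN-gamma with DMSO and 100% = IFN-gamma with 300 µM nifuroxazide; values of inactives mirror those of a sister screen read the other way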
RAM_inhibit: inhibitors of the yeast RAM network; inhibition, % at 50 µM; S. cerevisiae dse1pr::URA3 reporter, 5-FOA growth OD615, 2 d; analog-sensitive cbk1-as2 kinase mutant strain; 1.8% of 190,000 active;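 active means inhibition above a set limit, 3 SD over mean compound inhibition, cut at about 8.4% in these data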;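 further: 0% = DMSO-only wells with no growth and 100% = 10 µM 1-NA-PP1 full growth; inhibition rescues growth on 5-FOA so higher OD means more RAM inhibition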
STAT3_act: increases IL-6 driven STAT3 reporter signal; U3A cells, IL-6 STAT3-luciferase reporter, luminescence; 100% = signal with IL-6 EC80 alone; AID 871; 0.91% of 190,000 active; activation (% of control), % at 5.6 µM;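 active means activation above the screen-wide mean of compound activation plus 3 SD, cut at about 130% in these data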;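 further: 0% = background luminescence of wells with medium and substrate only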
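Material: STAT3-luciferase reporter U3A cells; Probe or stimulus: IL-6 (33 ng/mL); Incubation: compound pre-incubation 1 h before IL-6, then 6 h stimulation at 37 °C; Technique: luminescence from STAT3-driven luciferase reporter; Evaluation: % activation versus median of IL-6-stimulated wells; Controls: IL-6-only high control.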
Hsp70_activator: switches on Hsp70 transcription; HeLa Hsp70 promoter luciferase reporter, luminescence; scaled: vehicle 0, proteasome-inhibitor control 100%; activation, % at 10 µM; 0.04% of 200,000 active; AID 1203;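 active means activation above the mean across all tested compounds plus 3 SD, cutoff set per campaign, cut at about 5.5% in these data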;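 further: 100% = MG132 at 30 µM as the positive control and 0% = DMSO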
* = called active by the depositor; / = no result given. Some of the compounds tested, so the mix of outcomes need not match the whole.

Preview, four compounds:
SMILES STAT1_inh RAM_inhibit STAT3_act Hsp70_activator
COc1cccc(C(=O)Nc2ccc(C)cc2)c1 -37 0.3 86 0.1
Cc1csc(NC(=O)Nc2ccccc2[N+](=O)[O-])n1 -35 3.5 124 -0.1
Nc1nc2c(ncn2COCCO)c(=O)[nH]1 -8 2.9 101 -0.3
CCOC(=O)c1ccccc1N/C=C/C(=O)c1cccs1 -14 4.7 102 -0.1

Main list, from the first entry:
SMILES STAT1_inh RAM_inhibit STAT3_act Hsp70_activator
COc1cccc(C(=O)Nc2ccc(C)cc2)c1 -37 0.3 86 0.1
Cc1csc(NC(=O)Nc2ccccc2[N+](=O)[O-])n1 -35 3.5 124 -0.1
Nc1nc2c(ncn2COCCO)c(=O)[nH]1 -8 2.9 101 -0.3
CCOC(=O)c1ccccc1N/C=C/C(=O)c1cccs1 -14 4.7 102 -0.1
OC[C@@H](O)[C@@H](O[C@H]1O[C@H](CO)[C@@H](O)[C@H](O)[C@H]1O)[C@H](O)[C@@H](O)CO / / / -0.1
O=C(COc1ccc(F)cc1)Nc1nccs1 -25 0.2 82 -0.1
COc1ccc(-c2noc(-c3ccccc3F)n2)cc1 -22 2.5 91 -0.2
Cc1ccn2cc(-c3cccc([N+](=O)[O-])c3)nc2c1 23 0.4 52 -0.1
O=C(Nc1ccc(-c2nc3ccccc3s2)cc1)C1=COCCO1 -30 3.0 55 -0.2
Cc1ccc(O)c(-n2nc3ccccc3n2)c1 -27 1.9 93 1.5
COc1ccc(-c2noc(-c3ccoc3C)n2)cc1 -52 0.0 104 0.1
Cc1nc(-c2ccc(C(=O)Nc3ccc(F)cc3)cc2)cs1 5 5.0 57 -0.2
COc1ccccc1C(=O)Nc1nc2cc3c(cc2s1)OCCO3 -42 2.5 / -0.1
COc1ccccc1NC(=O)C(=O)Nc1ccccn1 -39 2.9 141* -0.2
CCn1nc(C(=O)O)c(=O)c2cc3c(cc21)OCO3 1 -1.1 93 -0.3

Taken from the listing for reference:
SMILES STAT1_inh RAM_inhibit STAT3_act Hsp70_activator
COc1ccc(-c2noc(-c3ccoc3C)n2)cc1 -52 0.0 104 0.1
Cc1nc(-c2ccc(C(=O)Nc3ccc(F)cc3)cc2)cs1 5 5.0 57 -0.2

The main list resumes with the 3 entries that preceded the break.
SMILES STAT1_inh RAM_inhibit STAT3_act Hsp70_activator
COc1ccccc1C(=O)Nc1nc2cc3c(cc2s1)OCCO3 -42 2.5 / -0.1
COc1ccccc1NC(=O)C(=O)Nc1ccccn1 -39 2.9 141* -0.2
CCn1nc(C(=O)O)c(=O)c2cc3c(cc21)OCO3 1 -1.1 93 -0.3
COc1ccccc1-c1nc(-c2cccc(C)c2)no1 -54 -1.4 128 0.3
CCCOc1ccc(-c2cn3ccccc3n2)cc1 69* 0.2 23 -0.3
CCN(CC)CCNC(=O)c1ccc(N)cc1 -6 1.1 102 -0.3
Cc1cc(C(=O)COC(=O)c2ccco2)c(C)n1Cc1ccco1 5 0.6 79 -0.1
Cc1ccc(NC(=O)C(=O)Nc2ccccn2)cc1 23 3.5 32 -0.4

Grouped by structure: those above containing a furan ring, fused or not.
SMILES STAT1_inh RAM_inhibit STAT3_act Hsp70_activator
COc1ccc(-c2noc(-c3ccoc3C)n2)cc1 -52 0.0 104 0.1
Cc1cc(C(=O)COC(=O)c2ccco2)c(C)n1Cc1ccco1 5 0.6 79 -0.1

Compound activity (PubChem)
